Screening results deposited in PubChem by National Center for Advancing Translational Sciences (NCATS).
RE007 growth inh: less growth of the S. pombe RE007 Vpr strain; S. pombe RE007 Vpr strain, BacTiter-Glo ATP luminescence, 24 h; control for the full effect not named in the record; Potency, µM (doses to about 92.2 µM), for inactives: at the top dose activity change, negative = less growth; 360,000 compounds, 0.21% hits; AID 651644; active = well fitted falling curve with a large enough effect; inconclusive = small, poorly fitted or top-dose-only effect; inactive = no such curve, though single readings can be large or run the other way;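 note: nearly all actives have a fitted effect of over 50% in size; the assay follows cell death caused by Vpr and the record does not say whether a fall means rescue or toxicity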
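Fission yeast RE007 carrying one integrated HIV-1 vpr copy, seeded at OD 0.01 in PMG+AL medium with 23 nL pinned compound. Grown 24 h at 30 degrees; viability read by BacTiter-Glo luminescence after 5 min.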
StopGo reporter: lowers the luciferase signal of an FMDV 2A StopGo reporter | human cells with a luciferase reporter of 2A StopGo recoding; control for the full effect not named in the record | Potency, µM (highest dose often 57.9 µM), for the others: top-dose signal change, negative = less light | 410,000 compounds, 1.2% hits | AID 1159524; active = well fitted falling curve with a large enough effect; inconclusive = small, poorly fitted or top-dose-only effect; inactive = no such curve, though single readings can be large or run the other way; tested in HEK293T cells; note: nearly all actives have a fitted effect of over 45% in size; luciferase light after 4 h
* = called active by the depositor; u = inconclusive; [ ] = dose if it differs, or a comment. % is set by controls: 0 for no effect and ±100 for the full control effect; potency is the fitted concentration of half-maximal effect. This is a subset. The share of hits here may be higher or lower than overall.

SMILES | RE007 growth inh | StopGo reporter
CC1(Oc2ccccc2-c2ccno2)CCN(Cc2ccc(-c3ccccc3)o2)C1 (stereo not drawn) | -16%[18.4 µM] | -1%
CCCCOc1ccc(S(=O)(=O)NC(=O)C2(C)CCN2C(=O)CCc2ccccc2)cc1 (stereo not drawn) | 7% | -13%
COc1cccc(CNc2nc(NCC3CC3)nc3ccsc23)c1 | -13% | -1%
CN(C)c1ccc(-c2csc(C(O)(c3ccccc3)C(F)(F)F)n2)cc1 (stereo not drawn) | 32% | 24%
Nc1c(/C=C2/C=CC(=O)C(O)=C2)c(=O)nc2sc(CC(=O)N3CCOCC3)nn12 | -3% | -19%
COc1ccc(CC(=O)Nc2cc(F)ccc2F)cc1S(=O)(=O)N1CCOCC1 | -11% | -12%
CC(C)=C(C)c1cc2nc(NCCCN(C)C)n(C)c(=O)c2s1 | -23% | -16%
CCOC(=O)C1=CCN(S(=O)(=O)c2ccccc2F)C1c1ccc(F)cc1 (stereo not drawn) | -6% | -18%
COc1ccc(C)cc1NC(=O)COC(=O)Cc1c[nH]c2ccccc12 | 3% | -19%
O=C(NCc1ccccc1)C1=C[C@H](C2CCCCC2)C[C@H](OCCCCO)O1 | -4% | 19%
COc1ccccc1-c1csc(C(O)c2ccc(F)cc2)n1 (stereo not drawn) | -3% | -18%
CCN(CC)C(=O)C1=C(C)N(Cc2ccc(C(C)(C)C)cc2)C(=O)C(CC(=O)NCCc2ccccn2)C1 (stereo not drawn) | -24% | -11%
O=C(O)c1ccccc1-c1ccc([N+](=O)[O-])cc1Cl | -6% | -21%
Cc1ccc(F)cc1C(=O)N1CCCC(c2cc(C(=O)Nc3ccccc3Cl)no2)C1 (stereo not drawn) | 1% | u
CCCCn1nnnc1C(c1ccccc1)N1CCN(CCN2CCOCC2)CC1 (stereo not drawn) | -22% | -22%
COc1ccc([C@H]2C[C@H](n3cc(-c4ccc(F)cc4)nn3)[C@@H](O)CN2C(=O)C2CCCCC2)cc1 | -10% | -20%
CS(=O)(=O)Nc1ccc2c(c1)[C@@H]1C[C@@H](CC(=O)NCc3cccnc3)O[C@H](CO)[C@@H]1O2 | 7% | -5%
Nc1nc2ncccc2cc1C(=O)NCCc1cccs1 | -12% | -15%
CC(=O)/C=C1\OCc2ccccc21 | 0% | 2%
C=CC1(C)CN(Cc2ccco2)S(=O)(=O)c2c(F)cccc2O1 (stereo not drawn) | -3% | -14%

Single records, from the list above:
`CC1(Oc2ccccc2-c2ccno2)CCN(Cc2ccc(-c3ccccc3)o2)C1` (stereo not drawn) is entered as RE007 growth inh = -16%[18.4 µM]; StopGo reporter = -1%
`COc1ccc([C@H]2C[C@H](n3cc(-c4ccc(F)cc4)nn3)[C@@H](O)CN2C(=O)C2CCCCC2)cc1` is entered as RE007 growth inh = -10%; StopGo reporter = -20%
`CCCCOc1ccc(S(=O)(=O)NC(=O)C2(C)CCN2C(=O)CCc2ccccc2)cc1` (stereo not drawn) is entered as RE007 growth inh = 7%; StopGo reporter = -13%

Other entries:
SMILES | RE007 growth inh | StopGo reporter
Cc1ccc(C=C2SC(=S)N(CCCC(=O)Nc3cccc(C(=O)O)c3)C2=O)cc1 | -12% | 3%
Cc1cccc(C)c1NC(=O)C(c1ccc(C(F)(F)F)cc1)n1c(=O)c(-c2ccco2)nc2ccccc21 (stereo not drawn) | -13% | -11%
CCOC(=O)c1ncn2c1[C@@H]1CCNC1C(=O)c1cc(OC)ccc1-2 (stereo partly drawn) | -2% | u
CCCCn1c(N)c(N(C(=O)CSc2nnnn2-c2ccc(C)cc2)C2CCCC2)c(=O)[nH]c1=O | -2% | -10%
O=Nc1c(O)cc(O)c2ccccc12 | 1% | 11%
Cc1cc(C(=O)N2CCC2(C)C(=O)NCC(C)(C)C)nn1C (stereo not drawn) | 1% | -10%
OC(c1cccc(CN2CCCCC2)c1)c1ncc(-c2cccc(C(F)(F)F)c2)[nH]1 (stereo not drawn) | -22%[18.4 µM] | -4%
O=C(Nc1oc2ccccc2c(=O)c1-c1ccc2c(c1)OCO2)c1ccco1 | -1% | 19%
O=c1ccc2ccccc2c2ccccc12 | u | 13µM*
Cc1cc(C)cc(Cn2c(C)c(C(=O)N(C)Cc3ccc(F)cc3)sc2=O)c1 | 4%[18.4 µM] | 0%
COc1ccc(NC(=O)c2cc(C3CCCCN3C(=O)OCC(C)C)on2)c(C)c1 (stereo not drawn) | -3% | -15%
CCOC(=O)CN1C(=O)N[C@@H](CCc2ccccc2)[C@H](C(C)=O)[C@H]1C | 11% | 0%
O=C(c1ccc(F)cc1)N1CCC(C(=O)N2CCCc3ccccc32)CC1 | 5% | -8%
CC(=O)NCCNc1nc2cc(-c3ccc(Cl)cc3C)sc2c(=O)n1C | 0% | -23%
CC(=O)Nc1cc(-c2cccc(F)c2)cn2c(-c3ccc(F)cc3)cnc12 | -6% | -20%
CS(=O)(=O)N(CC(=O)N1CCc2ccccc2C1)c1cccc(Br)c1 | -4% | 31%[activator]
Cc1[nH]c(=O)[nH]c(=O)c1NC(=O)c1ccccc1[N+](=O)[O-] | -2% | -14%
NC(Cc1ccc(C(F)(F)F)cc1)c1csc(Nc2ccc(C(=O)NCc3ccco3)cn2)n1 (stereo not drawn) | 10% | -15%
O=C(NCc1cccc(C(F)(F)F)c1)c1ccc2sc([C@@H]3O[C@H](CO)[C@@H](O)[C@H]3O)nc2c1 | 4% | -2%
Cc1ccc(S(=O)(=O)N2C(c3ccc(Cl)c(Cl)c3)CC=C(C(=O)O)C2c2cccc(Cl)c2)cc1 (stereo not drawn) | -13% | 1%
C[C@H](CO)N1C[C@H](C)[C@H](CN(C)C(=O)Nc2ccc3c(c2)OCO3)Oc2ncc(Br)cc2C1=O | 3% | -11%
O=C(Nc1c(-c2ccccc2)[nH][nH]c1=O)c1cnccn1 | -9% | 0%
N#Cc1ccc(C(C(=O)NC2CCCCC2)n2c(=O)c(-c3cc4ccccc4[nH]3)nc3ccccc32)cc1 (stereo not drawn) | -4% | -2%
COc1ccc2cc(C#CC3=CC(=O)C[C@H](c4ccc(F)cc4)C3)ccc2c1 | -14% | -8%
O=C1CCCN1C1CCN(Cc2ccccc2)S(=O)(=O)N1 (stereo not drawn) | 13% | -8%
Cc1cccc(-c2ccc3c(c2)C2CC3CCN2C)c1 (stereo not drawn) | -9% | -14%
COc1cccc(C(C)(O)c2nc(-c3cccc(C(F)(F)F)c3)cs2)c1 (stereo not drawn) | u | -14%
CC1(Oc2ccc(Cl)cc2)CCN(Cc2ccc(-c3ccccn3)cc2)C1 (stereo not drawn) | u | -22%
CCc1nc2c(OCCn3cccc3)cccn2c1N(C)C(=O)CC(C)C | -17% | -3%
C=C[C@@H](c1ccccc1)[C@](C)(O)C(=O)O | 0% | -13%
CCOC(=O)C1(C)CCCN(C(=O)COc2ccccc2)C1 (stereo not drawn) | 9% | 5%
O=C(Nc1ccccc1SC(=O)c1ccccc1)c1ccccc1 | u | 65%[activator]
C=CCNc1n[nH]c(=S)s1 | -6% | -16%
CCOC(=O)C1=C(Nc2ccc(OC)cc2)C(N)=NC1=N | 10% | 46%[activator]
O=C(C[C@H]1C[C@H]2c3cc(NS(=O)(=O)c4ccc(F)cc4)ccc3O[C@H]2[C@H](CO)O1)NCc1ccncc1 | -26% | -25%
CC1C(=O)N(Cc2cn(CCC3OCCCO3)nn2)CCS(=O)(=O)N1Cc1ccc(-c2ccc(F)cc2)cc1 (stereo not drawn) | -12% | u
CC1=C(C(=O)N(C)C)CC(CC(=O)NCCc2ccccn2)C(=O)N1Cc1ccc(C(C)(C)C)cc1 (stereo not drawn) | -6% | -24%
CC(C)(C)OC(=O)N1CCC[C@@H]1CO | 0% | u
COCCCNc1ccn2nc(-c3cccc(OCc4ccccc4)c3)cc2n1 | 5% | u
Cn1c(Oc2cccnc2CN2CCCC2)nc2cc(-c3cccc(C(F)(F)F)c3)sc2c1=O | 2%[18.4 µM] | 4%

Gathered by group: those above containing a thiophene ring, fused or not
SMILES | RE007 growth inh | StopGo reporter
COc1cccc(CNc2nc(NCC3CC3)nc3ccsc23)c1 | -13% | -1%
CC(C)=C(C)c1cc2nc(NCCCN(C)C)n(C)c(=O)c2s1 | -23% | -16%
Nc1nc2ncccc2cc1C(=O)NCCc1cccs1 | -12% | -15%
CC(=O)NCCNc1nc2cc(-c3ccc(Cl)cc3C)sc2c(=O)n1C | 0% | -23%
Cn1c(Oc2cccnc2CN2CCCC2)nc2cc(-c3cccc(C(F)(F)F)c3)sc2c1=O | 2%[18.4 µM] | 4%

(cont.)
SMILES | RE007 growth inh | StopGo reporter
CCOC(=O)[C@]12CCC=C1N(Cc1cccc3ccccc13)C(=O)[C@H](CC(=O)N1CCN(C(=O)C3CC3)CC1)C2 | 6% | -17%
CN(C)Cc1ccccc1CNC(=O)c1cccc(S(=O)(=O)Nc2ccc3c(c2)OCO3)c1 | -4% | 81%[activator]
CC1(C(=O)NS(=O)(=O)Cc2ccccc2)CCN1C(=O)C1(c2ccc(Cl)cc2)CCC1 (stereo not drawn) | -4% | 9%
COc1cc(-c2cnc3c(NC=O)cc(-c4cccc(C(=O)NCCN(C)C)c4)cn23)cc(OC)c1OC | -27% | -18%
CC1(C(=O)NS(=O)(=O)c2ccc(Cl)s2)CCN1C(=O)C1CCCCC1 (stereo not drawn) | 1%[18.4 µM] | -10%
CC(=O)N(O)c1ccc(C=Cc2ccccc2)cc1 | 5%[18.4 µM] | 44%[activator]
CN(C)CCCNc1nc2cc(-c3cccc(C(F)(F)F)c3)sc2c(=O)n1C | -10% | -3%
NC(c1csc(Nc2ncccn2)n1)C1CCCCC1 (stereo not drawn) | 8%[18.4 µM] | 1%
C=CCN1Cc2ccccc2-n2nncc2C1 | 9% | -7%
Cc1cccc(C)c1N1C(=O)CC(Sc2ccccc2N)C1=O (stereo not drawn) | -11% | u

Two successive compounds from above, for reference:
SMILES | RE007 growth inh | StopGo reporter
C=CCN1Cc2ccccc2-n2nncc2C1 | 9% | -7%
Cc1cccc(C)c1N1C(=O)CC(Sc2ccccc2N)C1=O (stereo not drawn) | -11% | u

Continued:
SMILES | RE007 growth inh | StopGo reporter
O=C(OC1CC2CC1[C@H]1CCCCN1C2=O)N1CCCCC1 (stereo partly drawn) | 2% | -19%
Cc1cccc(C(O)c2ncc(-c3ccccc3F)[nH]2)c1C (stereo not drawn) | -26%[18.4 µM] | 65%[activator]
Cc1ccc(Cc2c(-c3ccc(Br)cc3)nc3ccc(Cl)cn23)cc1 | -4% | -20%
COc1ccc(-n2nnnc2C(CCSC)N2CCC3(CC2)C(=O)NCN3c2ccccc2)cc1 (stereo not drawn) | 3% | -1%
CC1(C(=O)Nc2ccc3c(c2)OCCO3)CCN1C(=O)c1ccco1 (stereo not drawn) | 5% | -23%
COc1ccc(N(CC(=O)NC2CC3CCC2C3)S(=O)(=O)c2ccc(C)cc2)cc1Cl (stereo not drawn) | -15% | -15%
CCCNC(=O)C1(C)CCN(C(=O)c2ccc3sccc3c2)C1 (stereo not drawn) | 17% | -12%
COc1cc(C(=O)NC2CC2)cc(OC)c1OC | -7% | -14%
COc1cccc(S(=O)(=O)Nc2ccc3c(c2)[C@H]2C[C@H](CC(=O)N[C@@H](C)c4ccccc4)O[C@H](CO)[C@H]2O3)c1 | -3% | 0%
CCCC1NC(=O)c2cc3ccccc3cc2-n2c1nc1ccc(F)cc1c2=O (stereo not drawn) | -21% | -10%
CN(C)C(=O)c1cc2c(c(-c3cccc(-c4ccccc4F)c3)n1)[C@@H](CCO)N(S(C)(=O)=O)C2 | 10% | -25%
Cc1ccccc1N1CCN(C(=O)c2cc(-c3ccccc3)nc3c2cnn3C(C)C)CC1 | 0% | -11%
CC(=O)N1CCOc2ccc(S(=O)(=O)NC[C@H]3O[C@@H](n4ccc(N)nc4=O)[C@H](O)[C@@H]3O)cc21 | -18% | -6%
CCO[C@H]1C[C@@H](c2ccc(CC)cc2)N(S(=O)(=O)c2ccc(C)cc2)C2CC(c3ccc(CC)cc3)N(S(=O)(=O)c3ccc(C)cc3)CC21 (stereo partly drawn) | 1% | -18%
COc1ccc(C(=O)NCC(=O)NCc2ccc3c(c2)OCO3)cc1[N+](=O)[O-] | -12% | 0%
COc1ccc(-n2c(C)c3c(C)nnc(C)c3c2C)cc1OC | -14% | -1%
C[C@H](CO)N1C[C@H](C)[C@@H](CN(C)Cc2ccc(C(=O)O)cc2)Oc2ncc(Br)cc2C1=O | 3% | -21%
COc1cc(OC)nc(C(NC(=O)C2CCN(Cc3c[nH]c4ccccc34)CC2)c2ccc(Cl)cc2)n1 (stereo not drawn) | -1% | -19%
O=C(Nc1ccccc1)c1cc(C2COCCN2C(=O)C2CC2)on1 (stereo not drawn) | 16% | 3%
Cc1ccc(NC(=O)C2(C)CCN2Cc2cccc3c2OCO3)cc1O (stereo not drawn) | 4% | u
CC1=C(C(=O)N2CCCCCC2)CC(CC(=O)NCc2cccs2)C(=O)N1Cc1ccccc1 (stereo not drawn) | 10% | 12%
